Rango release inh = prevents RanGTP from dissociating the Rango-importin beta complex; Potency, µM (top dose mostly 46.1 µM), for inactives: at the top dose activity change, negative = inhibition; Biochemical FRET Rango-importin beta, RanGTP-induced dissociation; O95149+P62826; AID 540253; actives 0.071% (n = 340,000); active means falling FRET ratio curve, often poorly fitted, with flat reads before Ran was added; inconclusive means other falling curves, or compound fluorescence or quenching; inactive means flat or rising ratio curve;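 note: potency is the fitted concentration of half-maximal effect; % of control where 0% means no effect; nearly all actives have a fitted effect of over 45% in size; -100% = wells without RanGTP and RCC1; the record marks most hits as doubtful in a second field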
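Compounds sat 5 min at room temperature with 0.1 uM Rango biosensor plus 0.25 uM importin beta, then FRET pre-read. RanGTP-RCC1 (0.6 uM Ran, 2mM GTP, 0.2 uM RCC1) added for 45 min, and the CFP/YFP post-read measured blocked complex dissociation.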
miR-21 FLuc = miR-21 reporter, rising signal; Potency, µM (highest dose often 38.3 µM), for inactives: at the top dose reporter change, positive = more light; 340,000 tested, under 10 active; AID 2288; HeLa miR-21 FLuc reporter, luciferase, 48 h; active = well fitted rising curve with a large enough effect; inconclusive = small, poorly fitted or top-dose-only effect; inactive = no such curve, though single readings can be large or run the other way;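 note: % of control where 0% means no effect; miR-21 action dims this reporter so a rising signal means less miR-21 action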
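HeLa cells endogenously expressing miR-21, stably carrying CMV-driven firefly luciferase with a downstream miR-21 binding site, 2000 cells/well. Titrations up to approximately 40 uM, 48 hours; luciferase luminescence read.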
GLA inh pH 4.5 = blocks human alpha-galactosidase A at pH 4.5; P06280; purified enzyme, 4-MU-alpha-Gal fluorescence, pH 4.5; activity change, negative = inhibition, % at 105 µM; 230,000 tested, under 10 active; AID 1467; inconclusive = small, poorly fitted or top-dose-only inhibition, or a rising curve; inactive = flat fitted curve, though single readings scatter; no compound was filed as active;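 note: 0% = full activity with enzyme and -100% = basal without enzyme; dose as in the result columns while the protocol names 77 µM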
Target sequence (P06280 whole entry, looked up): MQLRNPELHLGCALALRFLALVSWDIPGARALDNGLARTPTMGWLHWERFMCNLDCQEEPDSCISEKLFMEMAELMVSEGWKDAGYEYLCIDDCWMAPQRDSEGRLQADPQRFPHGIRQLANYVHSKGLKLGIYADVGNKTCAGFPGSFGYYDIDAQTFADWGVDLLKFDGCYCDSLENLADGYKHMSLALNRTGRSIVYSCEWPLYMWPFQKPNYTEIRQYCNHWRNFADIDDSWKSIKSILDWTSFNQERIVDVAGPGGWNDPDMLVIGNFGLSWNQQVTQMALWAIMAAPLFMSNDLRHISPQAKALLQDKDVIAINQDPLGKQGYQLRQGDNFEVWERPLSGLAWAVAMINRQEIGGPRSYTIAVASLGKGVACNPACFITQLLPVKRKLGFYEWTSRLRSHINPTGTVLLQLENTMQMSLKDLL
Rango complex inh = Rango-importin beta binding inhibition; Rango CFP/YFP FRET sensor + importin beta, 45 min; Potency, µM (titrated, usually from 92.2 µM), for the others: top-dose inhibition of complex formation; actives 0.031% (n = 340,000); Q14974; AID 540263; active = rising FRET ratio curve, often small or poorly fitted; inconclusive = mostly compound fluorescence or quenching in the first reads; inactive = flat curves in all reads;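 note: potency is the fitted concentration of half-maximal effect; 0% = DMSO wells and 100% = buffer wells lacking importin beta; nearly all actives have a fitted effect of over 15% in size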
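Inhibition scored from the CFP 486 nm/YFP 530 nm FRET ratio 45 min after adding 0.125 microM importin beta to 50 nM Rango biosensor preincubated 5 min with compound (room temperature, PBS with DTT, Tween-20, BSA). No-importin wells as positive control.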
An asterisk follows results filed as active; ? = inconclusive; / = not tested or not shown. Some of the compounds tested; count on the stated rates, not on these rows.

SMILES	Rango release inh	miR-21 FLuc	GLA inh pH 4.5	Rango complex inh
COC(=O)CCC(=O)Nc1sc(Cc2ccccc2)c(C)c1C(N)=O	0.0%	-1.8%	6.8	0.4%
C/C(Cc1ccccc1)=N\NC(=O)c1cccnc1	4.5%	-11.8%	0.7	1.3%
CCc1ccc(OC(=O)c2cccnc2)cc1	-5.5%	-7.7%	/	-0.3%
Cc1ccc(NC(=O)c2oc3ccccc3c2C)c([N+](=O)[O-])c1	11.6%	-12.9%	-1.8	0.2%
COC(=O)c1ccc(CNC(=O)C2CCC(=O)N(CCc3ccccc3)C2)cc1 (stereo not drawn)	-11.1%	2.9%	/	0.2%
NCC(c1ccccc1)c1c[nH]c2ccccc12 (stereo not drawn)	-2.7%	-5.7%	-4.7	3.2%
COc1ccc(NC(=O)CSC2=NN3CCCC(=O)N=C3S2)c(OC)c1	-19.0%	-1.5%	/	3.5%
CC(=O)Oc1ccc(/C=C(\NC(=O)c2ccco2)C(=O)Nc2ccc(C(C)=O)cc2)cc1	10.0%	-3.1%	/	0.9%
O=C(c1cnc2ccccn2c1=O)N1CCCc2ccccc21	-11.4%	-5.3%	-5.0	-3.0%
CN(C)Cc1c(C(=O)N/N=C/CCc2ccccc2)nnn1-c1nonc1N	-15.7%	-0.6%	/	7.2%
COc1ccccc1N1CCN(/N=C/c2cccc(OC)c2OC)CC1	2.2%	-25.9%	-3.5	-1.0%
COc1ccc(C(CNC(=O)c2oc3ccccc3c2C)N2CCCC2)cc1 (stereo not drawn)	-10.8%	/	/	3.7%
CCC(C)NC(=O)CCn1c(=O)c2cccn2c2ccc(F)cc21 (stereo not drawn)	7.0%	-6.1%	/	3.5%
O=C(NCc1ccccc1)C(c1cccnc1)N(Cc1ccco1)C(=O)c1ccccn1 (stereo not drawn)	-7.0%	-1.2%	-5.3	-2.9%
Cc1ccc([N+](=O)[O-])c(OCCCN2CCCCCC2)c1	-1.1%	-13.1%	-4.0	-0.9%
CCOc1ccc2nc(SCC(=O)NC(=O)NCc3ccco3)[nH]c2c1	-1.9%	-0.4%	-5.3	-1.1%
Cc1ccccc1-n1ncc(C(C)NC(=O)c2ccco2)c1C (stereo not drawn)	-5.0%	-18.1%	1.2	0.0%
CCc1nc2ccc(C(=O)N3CCN(c4cccc(C(F)(F)F)c4)CC3)cc2nc1CC	0.0%	-0.6%	/	-2.4%
CC(=O)c1cnc2n(c1=O)CCS2	16.1%	-0.6%	-2.7	0.7%
Cc1cc(=O)n2nc(N3CCCC3C(=O)Nc3cccc(Cl)c3C)sc2n1 (stereo not drawn)	6.6%	-5.3%	/	-1.3%

Next section; the last two above are carried over.
SMILES	Rango release inh	miR-21 FLuc	GLA inh pH 4.5	Rango complex inh
CC(=O)c1cnc2n(c1=O)CCS2	16.1%	-0.6%	-2.7	0.7%
Cc1cc(=O)n2nc(N3CCCC3C(=O)Nc3cccc(Cl)c3C)sc2n1 (stereo not drawn)	6.6%	-5.3%	/	-1.3%
O=C(COc1ccccc1[N+](=O)[O-])c1ccccc1	10.4%	1.2%	-15.5	-0.2%
C#CCNC(=O)C1=C[C@H](c2ccc(C#C)cc2)C[C@H](OCc2ccc(CO)cc2)O1	2.9%	/	/	-3.0%
COc1ccc(S(=O)(=O)N2CCOCC2)cc1NC(=O)COc1ccccc1OC	16.7%	6.2%	/	-2.4%
Cc1cc2c(c(=O)n1C1CC1)C(c1cccc(Cl)c1)C(C#N)=C(N)O2 (stereo not drawn)	?	-6.2%	-8.2	?
CCc1ccc(NC(=O)C(=O)c2cn(CC(=O)N3CCCCC3)c3ccccc23)cc1	0.1%	-11.3%	-3.5	3.1%
CN(C)S(=O)(=O)c1ccc(Cl)c(NC(=O)COC(=O)[C@@H]2CCCN2C(=O)c2cccs2)c1	-2.7%	-0.8%	-11.3	1.2%
CCOC(=O)c1cc2cc(CC(=O)c3ccc(OCC)cc3O)ccc2o1	31.2%	-26.2%	-2.6	0.0%
Cc1ccc(NC(=O)c2sc(Cl)nc2C)c(C)c1	4.7%	-9.1%	-6.8	-0.3%
CC(=O)Nc1nonc1-c1nc2ccccc2n1Cc1ccccn1	18.7%	-3.5%	-0.9	2.3%
CCOC(=O)C1CCN(C(=O)CSc2nccc(C)n2)CC1	0.8%	0.6%	-8.8	0.8%
COc1ccc(-c2cc(=O)oc3cc(OCC(=O)Nc4ccccn4)ccc23)cc1	-3.7%	-21.2%	/	5.8%
Cc1ccc2nc(SCC(=O)NCc3cccs3)[nH]c2c1	-1.2%	-0.3%	-1.6	1.2%
O=C(CCl)N1N=C(c2ccco2)CC1c1cccs1 (stereo not drawn)	-11.6%	?	2.2	-4.0%
O=C(CN1C(=O)NC2(CCCC2)C1=O)OCCOc1ccc(F)cc1	8.3%	/	/	-1.3%
CC(=O)NS(=O)(=O)c1ccc(NC(=O)c2cc(-c3ccc(C)cc3)nc3ccccc23)cc1	-2.9%	-17.1%	-0.8	-7.1%
COC(=O)CSc1nnc(-c2cccnc2)n1-c1cc(OC)cc(OC)c1	0.3%	-1.8%	2.7	-1.9%
O=C(NCCCO)c1nnc(Cc2c(F)cccc2Cl)o1	3.4%	-1.6%	-7.1	3.8%
O=C(CSc1nccn1-c1ccc(Cl)cc1)Nc1ccc2c(c1)OCO2	2.7%	12.5%	0.3	-2.9%
CN1C(=O)/C(=C/c2ccc(OCc3ccc(F)cc3)cc2)NC1=S	-13.2%	-1.9%	/	-2.6%
O/N=C1/C2C3C(Br)C4C5CC(C1C53)C24 (stereo not drawn)	-4.9%	-14.9%	5.0	-0.2%

Overlap with the part before: four entries; new compounds follow.
SMILES	Rango release inh	miR-21 FLuc	GLA inh pH 4.5	Rango complex inh
O=C(NCCCO)c1nnc(Cc2c(F)cccc2Cl)o1	3.4%	-1.6%	-7.1	3.8%
O=C(CSc1nccn1-c1ccc(Cl)cc1)Nc1ccc2c(c1)OCO2	2.7%	12.5%	0.3	-2.9%
CN1C(=O)/C(=C/c2ccc(OCc3ccc(F)cc3)cc2)NC1=S	-13.2%	-1.9%	/	-2.6%
O/N=C1/C2C3C(Br)C4C5CC(C1C53)C24 (stereo not drawn)	-4.9%	-14.9%	5.0	-0.2%
Cn1c(CNC(=O)c2ccc(Cl)cc2)nnc1SCC(=O)NC1=NCCS1	14.1%	9.8%	/	0.0%
CCC(=O)N(CCc1ccccc1)Cc1cc2cc3c(cc2[nH]c1=O)OCO3	0.9%	4.1%	-1.2	-1.2%
Cc1ccc(N(CC(=O)NC2CCCCC2)C(=O)Cn2nnc(-c3ccc(C)o3)n2)cc1	-1.8%	1.0%	-7.8	-1.0%
COc1ccc(-c2oc3ccccc3c(=O)c2OC(C)=O)cc1	?	-4.5%	-6.4	?
CCCN1CCN(CC(=O)Nc2nc3ccccc3s2)CC1	-11.3%	-6.8%	/	-3.7%
N#CCSc1nc2ccccc2c(=O)n1CC1CCCC1	0.4%	-11.4%	4.8	0.3%
O=C1CCC[C@@H]2C[C@@]3(C[C@@H]4CCN1[C@H]24)Nc1cc(Cl)ccc1NC3=NCc1ccccc1	-9.8%	/	/	-0.8%
CC1(C)CC(C(CCN(Cc2ccccc2)C(=O)c2ccco2)c2ccc(F)cc2)CCO1 (stereo not drawn)	8.2%	?	-6.8	?
Clc1ccccc1Nc1nc(-c2cccnc2)cs1	10.7%	-45.2%	-4.9	1.7%
CCOC(=O)c1ccc(-n2c(=S)sc3c(=O)[nH]c(C)nc32)cc1	-7.2%	5.6%	2.6	-3.0%
Cc1ccc2cc(CCNS(=O)(=O)c3ccc(Cl)cc3)c(=O)[nH]c2c1C	25.2%	10.0%	/	1.1%
O=C(COC(=O)c1n[nH]c2ccccc12)NC(=O)NC1CCCCC1	?	-6.2%	-0.4	1.0%
Clc1cc(Cl)cc(Nc2ncn[nH]2)c1	13.3%	-12.0%	3.0	1.0%
O=C(CCNC(=O)c1ccco1)Nc1ccc(Cl)cc1	2.0%	-1.2%	6.4	-1.4%
O=C1CC(N2CCC(c3nc4ccccc4o3)CC2)C(=O)N1c1ccc(Cl)c(C(F)(F)F)c1 (stereo not drawn)	-1.6%	-4.6%	-0.9	1.6%
O=C1CSC(=S)N1c1cccc(O)c1	-4.4%	-0.4%	/	-2.0%
O=c1c2ccccc2nc2n1C(CSc1ccc(F)cc1)CS2 (stereo not drawn)	-11.1%	-4.5%	2.2	1.7%
CCOC(=O)N1CCN(S(=O)(=O)c2ccc(F)c(C(=O)Nc3cc(C)cc(C)c3)c2)CC1	2.1%	2.3%	-16.8	-1.5%
c1ccc(-c2ccc3c(n2)CCCO3)cc1	-3.4%	/	/	-1.1%
Cc1oc(-c2cc(F)cc(F)c2)nc1CN1CCN(C(=O)c2ccco2)CC1	-0.7%	-6.0%	/	2.4%

As entered above:
Entry of O=C1CSC(=S)N1c1cccc(O)c1 in miR-21 FLuc: -0.4%
Entry of CCCN1CCN(CC(=O)Nc2nc3ccccc3s2)CC1 in Rango complex inh: -3.7%

(list continues)
SMILES	Rango release inh	miR-21 FLuc	GLA inh pH 4.5	Rango complex inh
CC(C)NC(=O)c1ccccc1NC(=O)Cc1ccc(Br)cc1	-1.8%	-9.4%	-12.2	0.5%
C=C(C)Cc1c(C)c(C#N)c2nc3ccccc3n2c1N1CCCCC1	?	-0.7%	1.4	?
Cc1ccc[n+](CC(=O)Nc2c(Cl)cc(Cl)cc2Cl)c1	3.5%	-34.4%	12.3	-0.1%
COc1ccc(C2CC(=O)c3cnc(N)nc3C2)c(OC)c1 (stereo not drawn)	12.1%	-5.4%	3.4	5.2%
CC(C)(C)OC(=O)NCCCCCNC(=O)c1[nH]cnc1C(=O)N[C@@H](Cc1ccccc1)C(=O)OC(C)(C)C	15.6%	/	/	-2.3%
O=C(NCc1ccco1)c1ccc(Cn2c(=O)c3sccc3n(Cc3cccc(F)c3)c2=O)cc1	11.8%	-11.8%	-14.3	-2.8%
N#Cc1ccc(OCC(=O)N2CCN(S(=O)(=O)c3ccc(Cl)s3)CC2)cc1	-5.0%	/	/	4.2%
COc1cc(/C=N/N(C)C)ccc1OC(=O)c1ccco1	10.6%	2.9%	4.5	-0.3%
Cc1ccccc1-c1nc(Cc2ccccc2)no1	8.1%	-63.4%	-4.4	3.6%
CC(=O)Nc1ccc(OCCOc2ccc(/C=C3\C(=N)N4N=C(C(C)C)SC4=NC3=O)cc2)cc1	-4.0%	-0.5%	/	-1.5%
COc1ccc(OCC(=O)Nc2nccs2)cc1	-10.2%	-0.6%	5.3	1.3%
C/C(=N\N1CCN(c2ccccc2)CC1)c1ccccc1O	9.6%	-33.8%	/	-1.0%
CN(C)S(=O)(=O)c1ccc(Cl)c(NC(=O)CN2CCC(Cc3ccccc3)CC2)c1	-7.7%	9.8%	-6.8	0.4%
N#Cc1ccc(C(=O)NC2=NCCS2)cc1	0.6%	-36.6%	/	0.3%
NS(=O)(=O)c1ccc(Nc2ncccc2[N+](=O)[O-])cc1	2.3%	-17.4%	4.5	-0.1%
O=C(NN=c1c(=O)c2ccccc2c1=O)c1ccccc1	66.4%	-10.6%	2.2	3.1%
CCNC(=S)N(Cc1cc2cc(C)c(C)cc2[nH]c1=O)C1CCCC1	-4.3%	-2.6%	6.1	0.8%
CC(OC(=O)CCN=C1NS(=O)(=O)c2ccccc21)C(=O)c1ccccc1 (stereo not drawn)	18.4%	/	/	0.2%
CCC(=O)Nc1cccc(NC(=O)c2ccc(C)c([N+](=O)[O-])c2)c1	0.3%	-18.9%	-3.8	-2.3%
Cc1ccc(NC(=O)CN(C)C(=O)COc2cccc3ccc(C)nc23)cc1	-14.1%	/	/	?
O=C(Cn1nnc(-c2ccc(F)cc2)n1)Nc1ccc2c(c1)OCCO2	1.8%	-0.3%	9.5	5.8%
O=[N+]([O-])c1ccccc1NC(=S)N/N=C/c1ccc(O)c(O)c1	7.4%	-102.2%	3.1	-1.1%
Cc1cc(C)c(-c2c(O)c3cccc4c3n(c2=O)CCC4)c(C)c1	-12.3%	-14.0%	-2.4	3.6%
O=C1C2C3C=CC(C3)C2C(=O)N1c1ccccc1 (stereo not drawn)	5.8%	5.0%	6.0	-0.4%
Cc1cc(=O)n2nc(-c3ccc(C(F)(F)F)cc3)sc2n1	-0.6%	-26.2%	4.9	-1.8%
Cc1ccc(C(C(=O)NCC2CCCO2)N(Cc2ccccc2F)C(=O)Cn2nnc(-c3cccs3)n2)cc1 (stereo not drawn)	0.1%	-5.8%	5.5	-1.1%
